PV pol inh = poliovirus RdRp elongation inhibitors, primary screen, biochemical, fluorescence polarization, total intensity; actives 0.66% (n = 150,000); AID 588519, 2011; % elongation, % (compound at 16.7 µg/mL); Genome polyprotein (Poliovirus type 1 (strain Mahoney)), P03300; poliovirus polymerase elongation; stronger effect = lower value; in the data active = % elongation below about 90%; note: some results filed as inactive read as strong as hits
Target sequence (P03300 1749-2209 limits assumed): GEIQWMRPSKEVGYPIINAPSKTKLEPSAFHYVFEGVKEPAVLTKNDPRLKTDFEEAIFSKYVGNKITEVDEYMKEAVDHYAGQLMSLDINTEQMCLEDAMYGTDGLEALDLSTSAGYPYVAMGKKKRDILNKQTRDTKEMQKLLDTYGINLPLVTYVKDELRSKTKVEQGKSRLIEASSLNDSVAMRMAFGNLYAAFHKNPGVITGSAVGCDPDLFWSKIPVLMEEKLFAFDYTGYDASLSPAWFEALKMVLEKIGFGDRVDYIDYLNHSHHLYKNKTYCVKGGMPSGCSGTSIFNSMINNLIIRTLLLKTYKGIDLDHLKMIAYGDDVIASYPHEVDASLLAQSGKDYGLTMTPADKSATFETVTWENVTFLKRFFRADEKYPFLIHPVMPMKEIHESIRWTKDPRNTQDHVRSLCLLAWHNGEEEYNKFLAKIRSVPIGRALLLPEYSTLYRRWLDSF
MenB inh = M. tuberculosis MenB inhibitors, primary screen, biochemical, absorbance | 1,4-dihydroxy-2-naphthoyl-CoA synthase (Mycobacterium tuberculosis (strain ATCC 25618 / … | MenB enzyme assay, absorbance read-out; some hits fall short of the stated cut | inhibition, %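 (about 12 µg/mL by stock and volumes)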 | actives 0.43% (n = 100,000);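 active = mean of two replicates above 30%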;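 note: 0% = no compound and 100% = wells with inactive enzyme; the first replicate is given; strong numbers were not always called active; inactives centre near -10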
Target sequence (P9WNP5 whole entry, looked up): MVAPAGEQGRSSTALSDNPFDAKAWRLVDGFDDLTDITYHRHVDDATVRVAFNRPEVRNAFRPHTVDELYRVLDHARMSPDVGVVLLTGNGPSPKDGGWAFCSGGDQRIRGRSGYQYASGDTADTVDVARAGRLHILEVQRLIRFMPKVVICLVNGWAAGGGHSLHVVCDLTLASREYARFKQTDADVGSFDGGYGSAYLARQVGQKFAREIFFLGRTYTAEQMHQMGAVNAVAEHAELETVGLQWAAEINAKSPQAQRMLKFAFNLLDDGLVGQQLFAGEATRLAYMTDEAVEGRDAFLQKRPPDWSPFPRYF
MbtI inh = MbtI salicylate synthase inhibitors, primary screen, biochemical, fluorescence intensity. actives 0.89% (n = 100,000). inhibition, %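 (about 17 µg/mL by stock and volumes)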. purified MbtI enzyme, fluorescence intensity read-out. P9WFX0;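 active = above 50% in both replicates, above 80% if mildly self-fluorescent; inactive = the rest, strongly fluorescent compounds included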;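 note: 0% = mean of negative and 100% = mean of positive controls; one replicate is shown; some compounds called inactive have numbers as strong as hits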
PV pol inh intensity = second read-out of PV pol inh, no call of its own (marks repeat the call); % elongation; measured here: total intensity read-out; formula for this scale not given here;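 total fluorescence in place of polarization; lower means less elongation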
Starred values were filed as active, the others as inactive; i = inactive; · = not tested or not shown. Compounds were not picked by outcome; overall some 1.7% were active at least once.

SMILES | PV pol inh | PV pol inh intensity | MenB inh | MbtI inh
CC(C)S(=O)(=O)c1nc2ccccc2n1Cc1ccccc1 | 103.0 | 108.0 | -4.7 | 7.2
CCc1c(C)nc(SCC(=O)N(CC)CC)c(C#N)c1C | 101.0 | 102.0 | -26.2 | 5.5
O=C(OCC(=O)N(c1ccccc1)C1CCCCC1)C1COc2ccccc2O1 (configuration not stated) | 103.0 | 107.0 | -2.4 | 2.5
Cc1cc(-c2ccc(C)c(S(=O)(=O)N(C)Cc3ccccc3)c2)on1 | 100.0 | 102.0 | -3.5 | -1.6
CCOC(=O)N1CCN(c2ccc3ccccc3n2)CC1 | 102.0 | 107.0 | 5.7 | ·
Cc1cc(C(=O)Cn2nnc3ccccc3c2=O)c(C)n1C | 100.0 | 104.0 | 13.4 | -15.4
C#CCSc1cccc2cccnc12 | 102.0 | 98.0 | -44.7 | 88.3
CCSc1nnc(C2CCCN(CC(=O)Nc3nc(C)cs3)C2)n1C (configuration not stated) | 103.0 | 106.0 | 15.3 | 0.7
CCN(CC)C(=O)O[n+]1ccccc1C(C)C | 100.0 | 100.0 | 0.0 | -10.2
O=C(Oc1ccc(N(Cc2cccs2)C2=NS(=O)(=O)c3ccccc32)cc1)c1ccccc1 | 101.0 | 109.0 | -9.1 | -5.0
Cc1cc(C(=O)CN(CC2CCCO2)C2CCS(=O)(=O)C2)c(C)n1C (configuration not stated) | 103.0 | 105.0 | -3.9 | -4.6
O=C(CN1CCn2nc(-c3ccccc3)cc2C1=O)N1CCCC1 | 100.0 | 105.0 | -28.7 | -5.9
CCOc1c(C)cc(-c2ncccc2O)cc1C | 102.0 | 103.0 | -14.5 | i
Cc1ccc(CN2CCC(CNC(=O)Cn3ncc4c([nH]c5ccccc54)c3=O)C2)cc1 (configuration not stated) | 104.0 | 99.0 | 7.4 | i
O=P1(Nc2ccc(F)cc2)COc2ccccc2OC1 | 100.0 | 103.0 | 1.8 | -1.8
COc1nc2ccccc2nc1CCC(=O)N1CCCC1 | 103.0 | 103.0 | -27.2 | -67.7
CCOc1ccccc1NC(=S)NCc1cccn1C | 101.0 | 104.0 | -35.5 | 0.2
COc1ccc(C(C2=C(O)CC(C)(C)CC2=O)c2c(C)[nH]c3ccccc23)cc1 (configuration not stated) | 100.0 | 98.0 | -20.6 | -190.9
COc1ccc(CN2C(=O)c3ccc(F)cc3C2=O)cc1 | 98.0 | 101.0 | -4.3 | 9.4
Fc1ccccc1CSc1nnc2ccc(-c3ccco3)nn12 | 106.0 | 104.0 | -10.5 | 42.6

The closing 3 compounds of the section before come first, to join the parts:
SMILES | PV pol inh | PV pol inh intensity | MenB inh | MbtI inh
COc1ccc(C(C2=C(O)CC(C)(C)CC2=O)c2c(C)[nH]c3ccccc23)cc1 (configuration not stated) | 100.0 | 98.0 | -20.6 | -190.9
COc1ccc(CN2C(=O)c3ccc(F)cc3C2=O)cc1 | 98.0 | 101.0 | -4.3 | 9.4
Fc1ccccc1CSc1nnc2ccc(-c3ccco3)nn12 | 106.0 | 104.0 | -10.5 | 42.6
CC1Cc2ccccc2N1C(=O)CSc1ncccc1C(=O)O (configuration not stated) | 100.0 | 101.0 | -3.0 | 3.1
CCN(CC)S(=O)(=O)c1ccc(-n2cnnn2)c(C)c1 | 103.0 | 102.0 | 0.0 | 6.4
O=C1CC(Nc2ccc(N3CCOCC3)cc2)C(=O)N1c1ccccc1 (configuration not stated) | 101.0 | 106.0 | -14.2 | ·
COC(=O)c1ccc2c(c1)N(Cc1nc(-c3cccc(Cl)c3)oc1C)C(=O)C1CCCN21 (configuration not stated) | 102.0 | 102.0 | -3.9 | 3.3
Cc1ccc(NCc2n[nH]c(=S)n2-c2ccccc2)cc1 | 99.0 | 101.0 | -13.3 | 45.2
CCn1c(=NC(=O)COc2ccc(OC)cc2)sc2cccc(F)c21 | 100.0 | 99.0 | -14.8 | 13.7
COc1ccc2c(c1)-c1ccccc1S(=O)(=O)N2 | 105.0 | 103.0 | · | -14.6
O=C(NCc1ccccc1)N1CCOc2ccccc21 | 103.0 | 99.0 | -9.3 | -12.9
N#Cc1ccc(-c2ccc(F)cc2)n(CC(=O)N2CCCC2)c1=O | 100.0 | 103.0 | 22.1 | 1.0
CC(C)(C)NC(=S)N1CCSCC1 | 106.0 | 109.0 | -0.1 | -4.8
O=c1[nH]nc(CSc2ccccn2)c2ccccc12 | 106.0 | 99.0 | 4.2 | 29.5
NC(=O)CSc1nc(NC2CC2)c2ccccc2n1 | 115.0 | 127.0 | 2.0 | 16.1
O=C(O)c1ccccc1C(=O)N(Cc1ccccc1)Cc1ccccc1 | 104.0 | 106.0 | -19.1 | ·
O=C(O)c1nc(Cl)c(Cl)c(N2CCCCC2)c1Cl | 103.0 | 96.0 | -17.1 | -9.1
Cc1ccc(C(=O)NCCN2C(=O)S/C(=C\c3ccc(F)cc3)C2=O)cc1NC(=O)c1ccco1 | 103.0 | 106.0 | -1.9 | 24.4
FC(F)(F)c1cc(-c2ccc(-c3ccn[nH]3)o2)cc(C(F)(F)F)c1 | 103.0 | 98.0 | -18.3 | -19.2
O=C(/C=C/c1ccccc1)N1CCCc2ccccc21 | 100.0 | 103.0 | -16.8 | 3.3
CCN(CC)c1ccc(C(=O)NN)cc1 | 103.0 | 110.0 | -17.1 | 10.7
Cc1cccc(-n2c(C)nc3cc(C(=O)NCc4ccc(F)cc4)ccc32)c1 | 99.0 | 101.0 | -25.3 | 2.3
Cc1cc(C)n2nc(C(=O)OCC(=O)N3CCN(S(=O)(=O)c4ccccc4)CC3)nc2n1 | 98.0 | 107.0 | -12.6 | -13.1

An excerpt of these results, as labelled records.
compound: FC(F)(F)c1cc(-c2ccc(-c3ccn[nH]3)o2)cc(C(F)(F)F)c1
  PV pol inh = 103.0
  PV pol inh intensity = 98.0
  MenB inh = -18.3
  MbtI inh = -19.2
compound: O=C(/C=C/c1ccccc1)N1CCCc2ccccc21
  PV pol inh = 100.0
  PV pol inh intensity = 103.0
  MenB inh = -16.8
  MbtI inh = 3.3
compound: CCN(CC)c1ccc(C(=O)NN)cc1
  PV pol inh = 103.0
  PV pol inh intensity = 110.0
  MenB inh = -17.1
  MbtI inh = 10.7
compound: Cc1cccc(-n2c(C)nc3cc(C(=O)NCc4ccc(F)cc4)ccc32)c1
  PV pol inh = 99.0
  PV pol inh intensity = 101.0
  MenB inh = -25.3
  MbtI inh = 2.3

Additional records follow.
SMILES | PV pol inh | PV pol inh intensity | MenB inh | MbtI inh
NNC(=O)CS(=O)Cc1cccc(C(F)(F)F)c1 (configuration not stated) | 102.0 | 90.0 | -40.8 | -3.6
COc1ccccc1-n1cnnc1SCc1ccc(C)cc1 | 102.0 | 107.0 | -32.9 | -13.1
O=C(NCC(c1ccco1)N1CCOCC1)c1ccccc1 (configuration not stated) | 104.0 | 102.0 | 2.6 | -1.4
CCN(CC)CCNc1ccnc2cc(Cl)ccc12 | 103.0 | 101.0 | -10.4 | i
CCOC(=O)C1CCN(C2=NC(C)C(=O)N2c2ccc(C)cc2)CC1 (configuration not stated) | 102.0 | 98.0 | -38.0 | 5.7
CC1=CC(C)C2COC(c3cccnc3)C1C2C (configuration not stated) | 100.0 | 102.0 | -23.3 | -0.2
Cc1ccc(C(=O)NCCn2c(C)cc3ccccc32)cc1 | 102.0 | 94.0 | -22.4 | 4.7
Cc1cccc(C)c1NC(=O)COc1ncnc2ccccc12 | 99.0 | 101.0 | · | -1.4
CCOC(=O)N1CCN(CC(O)Cn2c(=O)c3c(ncn3C)n(C)c2=O)CC1 (configuration not stated) | 99.0 | 89.0 | -20.3 | 0.4
CC(=O)Oc1ccccc1C(=O)O | 102.0 | 103.0 | 9.6 | -82.2
C=CCc1ccc2c(c1)OCO2 | 99.0 | 100.0 | -0.6 | -0.9
Nc1cc(N)nc(SCc2noc(-c3ccc(Cl)cc3)n2)n1 | 100.0 | 99.0 | -44.9 | -4.2
COc1ccc(-c2nn(CCC#N)cc2/C=N\NC(=O)c2ccccc2)cc1 | 103.0 | 104.0 | -47.9 | 17.8
CCCN(CC1CC1)C(=O)CSc1nnnn1-c1ccc(OC)cc1 | 103.0 | 103.0 | -2.4 | -4.5
CCCNS(=O)(=O)c1ccc2c(c1)CC(C)N2C(=O)C1CCC1 (configuration not stated) | 102.0 | 100.0 | -28.5 | 2.1
O=C1CCCc2cc(S(=O)(=O)N3CCCC(C(=O)N4CCCCC4)C3)ccc2N1 (configuration not stated) | 100.0 | 101.0 | 3.3 | -0.6
C[C@]12CCC(=O)C=C1CCC1C2[C@@H](O)C[C@@]2(C)C1CC[C@]2(O)C(=O)CO (some centres not stated) | 100.0 | 100.0 | -1.7 | -8.8
O=C(COc1ccc2ccccc2c1)Nc1cccc(-c2nc3ncccc3o2)c1 | 103.0 | 106.0 | -34.9 | -6.0
CCOP(=S)(OCC)C(O)c1ccccc1 (configuration not stated) | 99.0 | 99.0 | -6.0 | 1.5
CC(=O)Nc1ccc(N)cc1 | 101.0 | 102.0 | -15.9 | 12.5
Cc1cc(NC(=O)N(C)C)nn1-c1ccccc1 | 106.0 | 102.0 | -8.2 | -9.3
Cc1cc(O)cc(O)c1C(=O)Cc1cscn1 | 100.0 | 101.0 | -15.2 | 10.8
CCOC(=O)Cc1cc(=O)oc2cc(OCC)ccc12 | 110.0 | 109.0 | -3.1 | ·
CS(=O)(=O)NC(C(=O)O)c1ccccc1 (configuration not stated) | 100.0 | 102.0 | -31.7 | -2.8
Oc1ccc2n[nH]nc2c1 | 99.0 | 102.0 | -16.9 | i
CC(=O)N1CCN(C(=S)NC2CC3CCC2C3)CC1 (configuration not stated) | 99.0 | 102.0 | -16.9 | -8.4
O=C1CSc2ccc(C(=O)N3CCc4ccccc43)cc2N1 | 106.0 | 110.0 | -16.1 | -7.5
Cc1nnc(SCC(=O)NC2CCCCC2)o1 | 100.0 | 100.0 | 2.3 | -3.9
O=C(NCc1ccccc1)C1CCN(Cc2cnn(-c3ccccc3)c2-n2cccc2)CC1 | 107.0 | 107.0 | -31.3 | 4.3
CN1/C(=C\C=N\NC(=O)Cn2cncn2)C(C)(C)c2ccccc21 | 104.0 | 111.0 | -152.6 | -4.1
CSc1cc(/C=N/O)c(SC)s1 | 99.0 | 102.0 | -9.1 | -11.4
Cc1c(C(=O)NN=C2CCCCCC2)nnn1-c1nonc1N | 101.0 | 102.0 | -2.0 | 7.2
CCCn1c(SCc2nc(N)nc(Nc3ccccc3CC)n2)n[nH]c1=O | 111.0 | 107.0 | -41.1 | -2.9
CC(C)N1C(=O)S/C(=C/c2cc(Br)c(OCC(=O)O)c(Br)c2)C1=O | 103.0 | 105.0 | -1.1 | -210.3
O=C(NCc1ccc2c(c1)CCO2)c1cc(F)cc2c1OCOC2 | 104.0 | 103.0 | 8.2 | -46.7
O=S1(=O)CC2SC(=S)N(CC3CCCO3)C2C1 (configuration not stated) | 99.0 | 103.0 | -54.8 | -9.1
CS(=O)(=O)N1CCC2(CC1)OCCN2S(=O)(=O)c1ccccc1 | 100.0 | 104.0 | -8.1 | 1.2
NC(=O)c1cc(S(=O)(=O)N2CCCC2)cs1 | 102.0 | 106.0 | -21.5 | -25.9
CC(OC(=O)C(c1ccccc1)c1ccccc1)C(=O)N1CCN(C(=O)c2ccco2)CC1 (configuration not stated) | 100.0 | 93.0 | -30.4 | 16.5
Cc1ccc(C)n1CCC(=O)O | 69.0* | 90.0* | -51.6 | 0.8
O=S(=O)(c1ccc(-n2cnnn2)cc1)N(Cc1ccccn1)C1CC1 | 100.0 | 102.0 | -20.1 | -5.8
CC(=O)N(Cc1ccc(Br)cc1)c1ccccc1C(=O)O | 105.0 | 101.0 | -7.8 | 5.2
O=C(c1cccc(S(=O)(=O)N2CCc3ccccc32)c1)N1CCCCC1CO (configuration not stated) | 102.0 | 100.0 | 11.1 | 5.8
CCC1CCCCN1C(=O)CSc1nc2c([nH]c3ccccc32)c(=O)n1-c1ccccc1 (configuration not stated) | 99.0 | 103.0 | -10.8 | 4.2
COc1cc(-c2nc3cc(Cl)ccc3o2)cc(OC)c1OC | 101.0 | 103.0 | 17.1 | 90.7
O=c1[nH]nc(C(F)(F)F)n2cccc12 | 113.0 | 117.0 | -5.7 | -8.6
N#CC1=C(N)N=C(SCc2ccccc2)C(C(N)=O)C12CCCCC2 (configuration not stated) | 99.0 | 97.0 | -22.8 | -9.2
O=c1[nH]cnc2nc3c4ccccc4c4ccccc4c3nc12 | 101.0 | 103.0 | -28.4 | -6.3
Cc1cccc(OC2CCS(=O)(=O)C2)c1 (configuration not stated) | 98.0 | 102.0 | 5.2 | -1.3
N#Cc1cc2cc(Br)ccc2oc1=O | 102.0 | 104.0 | -15.7 | -12.6
CC(=O)N(C(C)=O)c1ncnc2sc3c(c12)CCCC3 | 99.0 | 101.0 | -50.5 | i
O=C(Cn1ncc2c([nH]c3ccccc32)c1=O)NCCC1=CCCCC1 | 104.0 | 102.0 | -18.8 | -6.1
O=S1OCC(COc2cccc3ccccc23)O1 (configuration not stated) | 76.0* | 82.0* | -11.9 | ·
COc1ccccc1NC(=O)C1CC(=O)N(C)C(=Nc2ccccc2)S1 (configuration not stated) | 104.0 | 108.0 | -19.6 | -15.1

Source: PubChem BioAssay
